Screening results (PubChem)
Six1-Eya2 blk: blocks human Six1 binding to Eya2 | hit rate 0.56% among 360,000 | activity change, % (test concentration not listed) | AlphaScreen GST-Six1/His-Eya2 binding, biochemical; active compounds read low; control for the full effect not named in the record | Q15475+O00167; in the data active = activity change below about -65%; inconclusive = about -30% to -65%; inactive = above about -30%; note: % is set by controls: 0 for no effect and ±100 for the full control effect
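AlphaScreen with GST-Six1 and His-Eya2 (5X mix: 250 nM and 500 nM), glutathione donor and nickel acceptor beads; buffer 50 mM Tris pH 8.0, 300 mM NaCl, 1 mM TCEP; 1 h at 37 C in the dark.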
D2 agonist: activates the human D2 dopamine receptor | activation, % (test concentration not listed) | DiscoveRx PathHunter D2 beta-arrestin, luminescence, 90 min; 100% = 57 uM dopamine signal | hit rate 0.084% among 360,000; in the data active = activation above about 40%; inconclusive = about 15% to 40%; inactive = below about 15%; note: compound concentration not given in the record; the text of the record calls up to 30% inactive
Target sequence (P14416 whole entry, looked up): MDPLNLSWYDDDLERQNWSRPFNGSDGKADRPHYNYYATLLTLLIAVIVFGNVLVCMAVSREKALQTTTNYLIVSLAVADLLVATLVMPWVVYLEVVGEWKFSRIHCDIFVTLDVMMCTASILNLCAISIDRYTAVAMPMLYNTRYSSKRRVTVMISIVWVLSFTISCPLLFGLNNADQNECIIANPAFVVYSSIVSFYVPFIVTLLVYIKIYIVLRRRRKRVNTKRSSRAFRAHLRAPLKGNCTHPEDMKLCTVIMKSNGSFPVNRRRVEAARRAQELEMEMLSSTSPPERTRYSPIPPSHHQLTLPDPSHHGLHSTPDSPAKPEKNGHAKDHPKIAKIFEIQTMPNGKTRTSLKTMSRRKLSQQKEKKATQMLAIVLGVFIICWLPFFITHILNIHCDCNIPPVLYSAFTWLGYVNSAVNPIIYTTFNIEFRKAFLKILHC
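Agonist mode: compounds alone added to overnight-plated D2 PathHunter cells for 90 min at 37 C, with 57 uM final dopamine (EC100) defining full response. Beta-arrestin recruitment detected by chemiluminescent reagent, read after 1 h at ambient temperature.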
TRPML1 agonist: human mucolipin-1 channel agonism. Q9GZU1. TRPML1-expressing cells, Ca2+ dye fluorescence, FDSS; host cell line not named in the record; reference of the full effect not given here. activation, % (test concentration not listed). hit rate 0.12% among 410,000. AID 624414; in the data active = activation above about 50%; inconclusive = about 30% to 50%; inactive = below about 30%; note: 0% is about no effect; the text of the record puts the active cut at 80%
Target sequence (Q9GZU1 whole entry, looked up): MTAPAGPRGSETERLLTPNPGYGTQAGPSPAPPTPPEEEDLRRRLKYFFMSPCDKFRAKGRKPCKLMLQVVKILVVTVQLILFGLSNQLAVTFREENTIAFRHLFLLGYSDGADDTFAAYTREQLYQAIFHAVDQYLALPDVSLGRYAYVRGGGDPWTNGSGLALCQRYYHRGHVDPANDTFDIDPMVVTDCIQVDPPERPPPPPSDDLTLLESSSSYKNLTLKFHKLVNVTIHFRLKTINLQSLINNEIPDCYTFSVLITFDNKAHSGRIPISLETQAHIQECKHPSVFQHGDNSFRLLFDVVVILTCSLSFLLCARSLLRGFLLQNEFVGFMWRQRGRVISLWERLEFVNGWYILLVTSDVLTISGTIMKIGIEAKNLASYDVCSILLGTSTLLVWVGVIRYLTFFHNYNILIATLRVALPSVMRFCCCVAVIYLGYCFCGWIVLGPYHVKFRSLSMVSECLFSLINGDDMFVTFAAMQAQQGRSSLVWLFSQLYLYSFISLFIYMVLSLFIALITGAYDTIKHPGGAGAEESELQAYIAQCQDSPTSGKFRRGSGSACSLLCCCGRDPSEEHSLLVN
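In this qHTS format, compounds were pin-transferred onto Ca8-dye-loaded TRPML1-DL cells induced with Tet overnight, and intracellular Ca2+ fluorescence was recorded kinetically for 110 s after a 10 s baseline. A subsequent 4uM final 54-4 (EC80) addition followed by a second 110 s read served as the antagonist phase.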
PINK1 expr mod: PINK1 expression modulation; hit rate 0.2% among 410,000; PINK1 immunofluorescence, high-content cytometry, 24 h; Potency, µM (top dose mostly 76.6 µM), inactives show at the top dose activation (PINK1 increase), hits mostly activators; active = well fitted activation curve with a large enough effect; inconclusive = small, poorly fitted or top-dose-only effect; inactive = flat fitted curve, though single readings scatter; cell line not stated here;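 note: potency is the fitted concentration of half-maximal effect; % of control where 0% means no effect; nearly all actives have a fitted effect of over 65% in size; a mitochondrial uncoupler was the plate control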
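Readout is PINK1 immunofluorescence, quantified alongside mitochondrial, cell and nuclear markers by laser-scanning microplate cytometry. Cells from a stable line were exposed to compound titrations (5 concentrations) for 24 hours, with CCCP controls.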
TRPML1 inh: human mucolipin-1 channel inhibition. Q9GZU1. TRPML1-inducible cells, Ca2+ dye fluorescence, FDSS; active compounds read low; inhibition of EC80 agonist-evoked calcium signal. activity change, negative = inhibition, % (no concentration beside the values). hit rate 0.02% among 390,000; in the data active means activity change below about -50%; inconclusive means about -30% to -50%; inactive means above about -30%;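 note: stimulus is agonist 54-4 at its EC80 concentration; % is set by controls: 0 for no effect and ±100 for the full control effect; compound concentration not given in the record; the text of the record puts the active cut at -80%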
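Tet-induced TRPML1-DL cells loaded with Ca8 no-wash calcium dye were read kinetically on FDSS. Compound addition was followed by EC80 agonist 54-4 (4 uM final); inhibition was read over 110 s.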
CtBP-E1A blk: inhibitors of CtBP/E1A interaction; AlphaScreen GST-E1A/His-CtBP binding, 1536-well; active compounds read low; control for the full effect not named in the record; AID 651724; hit rate 0.49% among 340,000; activity change, % (concentration not given with the values); in the data active means activity change below about -65%; inconclusive means about -30% to -65%; inactive means above about -30%; note: % is set by controls: 0 for no effect and ±100 for the full control effect
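GST-E1A and His-tagged CtBP (125 nM each as 5X stock) were preincubated with pin-transferred compound for 2 h at 37 °C in the dark, then glutathione donor and nickel acceptor beads were added for 1 h before AlphaScreen reading.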
* marks the source's active call; other numbers are inactive results; ? = inconclusive; . = no result given; [ ] = remark or other dose. Not a hit list. Share with any hit: about 1%.

SMILES	Six1-Eya2 blk	D2 agonist	TRPML1 agonist	PINK1 expr mod	TRPML1 inh	CtBP-E1A blk
Cc1ccc(C)c(NC(=O)C(Sc2nc3ccccc3c(=O)n2CC(C)C)c2ccccc2)c1 (stereo unspecified)	2.8	-5.9	0.1	-0.1%	13.7	0.0
Cc1sc2ncn(CC(=O)N3CCN(c4ccc(Cl)cc4)CC3)c(=O)c2c1S(=O)(=O)N1CCN(c2ncccn2)CC1	.	.	0.4	3.1%	2.8	.
Cc1nnc(SC(C)C(=O)Nc2sc3c(c2C#N)CCCC3)[nH]c1=O (stereo unspecified)	11.0	-2.2	0.0	0.2%	-9.0	0.0
Oc1cc(Cc2ccccc2)cnc1CN1CCCCC1	-3.5	0.5	-0.4	0.4%	-1.9	-0.3
CCOCCCNC(=S)N(Cc1ccccc1)Cc1nc2ccccc2c(=O)[nH]1	-1.1	2.9	-1.7	1.0%	13.8	8.8
CCOc1cc(C(=O)N/N=C/C2CC=CCC2)cc(OCC)c1OCC (stereo unspecified)	29.0	1.7	0.3	?	-8.3	0.0
CCn1c2ccccc2c2cc(N=C3SC(CC(=O)Nc4ccccc4OC)C(=O)N3C)ccc21 (stereo unspecified)	-1.6	0.2	1.2	0.0%	-3.9	-1.2
CN(CCC#N)c1ccc(C=C(C#N)c2ccc(Br)cc2)cc1	-15.2	-1.8	1.2	8.7%	55.0	2.0
NS(=O)(=O)c1ccc(NC(=O)CCC(=O)c2cccs2)cc1	3.4	1.7	1.1	-2.1%	-2.3	-3.7
c1ccc(Cc2nnc3sc(-c4ccc5c(c4)OCCO5)nn23)cc1	-7.4	-5.9	0.6	1.0%	7.3	-0.1

3 of the compounds above, with two lines to a compound.
Fields – Six1-Eya2 blk | D2 agonist | TRPML1 agonist | PINK1 expr mod | TRPML1 inh | CtBP-E1A blk
- CCOCCCNC(=S)N(Cc1ccccc1)Cc1nc2ccccc2c(=O)[nH]1
→ -1.1 | 2.9 | -1.7 | 1.0% | 13.8 | 8.8
- NS(=O)(=O)c1ccc(NC(=O)CCC(=O)c2cccs2)cc1
→ 3.4 | 1.7 | 1.1 | -2.1% | -2.3 | -3.7
- Cc1nnc(SC(C)C(=O)Nc2sc3c(c2C#N)CCCC3)[nH]c1=O (stereo unspecified)
→ 11.0 | -2.2 | 0.0 | 0.2% | -9.0 | 0.0

Later entries:
SMILES	Six1-Eya2 blk	D2 agonist	TRPML1 agonist	PINK1 expr mod	TRPML1 inh	CtBP-E1A blk
COc1cccc2sc(N(CCCN(C)C)C(=O)c3sc4ccccc4c3Cl)nc12	-19.4	1.0	0.2	0.2%	-13.4	2.8
CCN(CC)S(=O)(=O)c1ccc(Nc2ccc(-c3ccc4c(c3)OCCO4)nn2)cc1	-18.5	2.0	1.1	51.9%[38.3 µM]	16.8	-25.1
Cc1ccc2c(c1)C1CC(C)(O2)N(c2cccc(C(=O)NCc3ccccn3)c2)C(=O)N1 (stereo unspecified)	-5.9	1.5	-0.8	0.2%	-0.5	2.5
O=C(COC(=O)c1cccnc1)Nc1ccccc1	-0.6	-4.0	-0.7	-0.7%	-0.6	3.6
CC1CCN(C(=O)CSc2nnc(-c3cccnc3)n2C2CCCCC2)CC1	-0.5	-0.7	0.1	5.4%[38.3 µM]	-3.5	1.8
CCCCOC(=O)Cn1c(-c2ccccc2)nc2ccccc2c1=O	37.5	-0.9	1.8	2.0%	0.9	16.6
N#CCSc1n[nH]c2nc3c(c(=O)n12)C1(CCCCC1)Cc1ccccc1-3	0.9	-0.7	0.3	0.5%	2.4	1.2
Cc1ccc(C(=O)CSc2nc(C)cc(C)c2C(=O)Nc2cccc(C)c2)cc1	.	.	2.1	0.1%	9.7	.
COC(=O)[C@]1(C)N[C@H](c2ccc(-c3cccc(Cl)c3)cc2)[C@@H]2C(=O)N(C)C(=O)[C@@H]21	0.7	3.9	0.2	0.9%	12.6	3.5
COc1ccc(OCc2ccc(/C=N\NC(=O)c3sccc3C)o2)cc1	-17.8	-2.9	0.7	5.2%	1.9	?
COc1cccc(NC(=O)C2(C)CCN2Cc2ccc(OC(C)C)cc2)c1 (stereo unspecified)	-1.1	7.5	-0.6	2.0%	.	8.9
O=C(NCCc1ccccc1)c1ccc2[nH]c(=O)c(=O)[nH]c2c1	4.7	0.2	0.4	0.4%	-5.7	.
CCOC(=O)CC1C(=O)NCCN1C(=S)Nc1ccccc1 (stereo unspecified)	2.8	-0.8	-0.5	-0.7%	12.0	-10.2
COC(=O)CCCCCCCC(=O)Nc1nnc(C(F)(F)F)s1	1.3	0.3	1.1	0.6%	-13.7	3.1
Cc1nn(Cc2ccccc2)c(C)c1NC(=O)CCCn1nc(C)c([N+](=O)[O-])c1C	9.9	-4.4	0.1	0.0%	-6.2	8.8
COc1ccccc1N1CCN(C(=O)c2ccc(CN3CCc4ccccc4C3)cc2)CC1	-7.5	-1.2	-0.5	-0.9%	17.6	-0.6
COc1cc(C(=O)NCC(=O)N2CC=C(c3ccccc3)CC2)cc(OC)c1OC	-4.7	-4.3	0.2	12.4%	-10.3	-3.0
CO/N=C/C(C#N)c1ncc(C(F)(F)F)cc1Cl (stereo unspecified)	-7.1	-2.3	0.9	12.6µM*	-1.9	2.4
CN(C)C(CNC(=O)c1ccc(C2SCCS2)cc1)c1ccccc1 (stereo unspecified)	-1.8	0.5	1.3	0.6%	-23.6	-23.3
Cc1ccccc1C(=O)Nc1cc(-c2ccc(Cl)cc2)nn1-c1ccccc1	.	.	1.0	3.4%	8.7	.
Cc1cc(C)n(-c2ccc(C(=O)Nc3cc(C(F)(F)F)ccc3N3CCOCC3)cc2)n1	3.8	-1.0	-0.4	16.1%	51.5	8.2
O=C(NCc1cccnc1)C(=O)NCC1OCCCN1S(=O)(=O)c1cc(F)ccc1F (stereo unspecified)	3.9	-0.5	-0.4	0.2%	1.0	1.4
CCc1ccc2occ(CC(=O)N(Cc3ccccc3)C3CCS(=O)(=O)C3)c2c1 (stereo unspecified)	.	.	0.2	-1.0%	7.6	.
Cc1ccc(OCc2cccc(S(=O)(=O)N(C)C)c2)c([N+](=O)[O-])n1	-10.7	-2.4	0.2	2.5%	38.4	-3.1
COc1cc(OC)nc(NC2OC(=O)c3ccccc32)n1 (stereo unspecified)	0.3	-1.3	-0.2	27.7%[38.3 µM]	19.1	4.9
COc1ccc(NC(=O)CN(C)C(=O)c2ccc(NS(=O)(=O)c3cccc([N+](=O)[O-])c3)cc2)cc1	-6.8	1.6	1.1	-3.3%	1.5	-1.9
S=C1NCN(Cc2cccnc2)CN1	10.4	2.1	-0.2	-1.0%	-4.0	19.1
Cc1cccc(-c2c3c(=O)n(C)c(=O)n(C)c3cn2-c2ccc(O)cc2)c1	-4.4	-0.3	0.1	-0.5%[38.3 µM]	-11.8	-4.7
C=CCNC(=S)Nc1cc(Cl)ccc1OC	-2.0	0.5	-0.6	2.2%	-1.9	-0.4
COCCCNC(=O)C1CCCN(c2ncnc3onc(C)c23)C1 (stereo unspecified)	.	.	-0.7	-1.2%	16.2	.
O=C(c1ccc2c(=O)n3c(nc2c1)CCCCC3)N1CCCCC1	1.3	-2.3	-0.3	0.2%	5.1	0.3
CN(C)c1ccc(NC(=O)Nc2cccc3ccccc23)cc1	-18.0	3.3	.	0.4%	.	-9.6
Cc1cc(-c2nnc3n2N=C(c2ccccc2Br)CS3)n[nH]1	-1.7	-1.1	0.2	-0.1%	-17.7	-2.9
Cc1ccc(-n2nc(C)c3c(C)c(CCC(=O)NCc4cccc(Cl)c4)c(C)nc32)cc1C	.	.	1.3	-3.1%	-2.7	.
COc1ccccc1Cc1c(C2CCCCC2)nc2ccc(Br)cn12	-2.1	-4.6	0.5	?	5.9	-2.0
CC1CCCCN1CCCNc1ccc(C(CC(N)=O)NC(=O)Cc2cccc3ccccc23)cc1[N+](=O)[O-] (stereo unspecified)	-3.2	-2.1	-0.1	-0.4%	2.7	3.5
COc1ccc(N2C(=O)CC(C#N)=C2N)cc1	1.6	1.5	-0.7	-0.9%	12.0	-5.4
O=C(O)C12CC3CC(C1)CC(n1cnc(Cl)n1)(C3)C2	3.6	-0.8	-1.2	0.7%	12.1	0.9
CCOc1ccc(NC(=O)CSc2nc3c([nH]c4ccccc43)c(=O)n2C)cc1	-8.1	-5.0	-0.5	0.2%	5.9	-0.7
CCC(C)[C@H](NC(=O)[C@H](Cc1ccccc1)n1c(=O)[nH]c2ccccc2c1=O)C(=O)N1CCC(C(=O)O)CC1 (stereo partly specified)	2.5	-3.0	.	1.2%	.	1.0
Cc1ccc(-c2ccc(C(=O)Nc3ccccc3)o2)c2ccccc12	-7.2	0.8	-0.5	3.1%	-9.2	-1.3
O=C(NCc1ccc2c(c1)OCO2)Nc1cccc2ccccc12	4.4	-4.5	0.1	1.2%	-6.6	.
COC(=O)[C@@]1(Cc2ccc(OC)cc2)[C@@H]2[C@@H](CC(=O)[C@H]2CC(=O)C(=O)N(C)C)CN1C(=O)c1ccccc1	-14.9	-7.3	-0.5	1.1%	-6.3	-15.7
COC(=O)C1C(=O)C=C(Nc2ccc(F)cc2F)CC1c1ccc(OC)cc1 (stereo unspecified)	-2.0	-1.5	-1.1	-0.6%	5.0	3.0
CC(C)NC(=O)N1CCN(S(=O)(=O)c2ccc3c(ccn3C)c2)CC1	.	.	1.6	0.3%	20.1	.
Cc1c(NC(=O)CC2CC(C)OC2=O)c(=O)n(-c2ccccc2)n1C (stereo unspecified)	3.7	-2.3	-0.3	-0.1%	-28.3	3.4
CCOc1cc(C(=O)Nc2ccc(S(=O)(=O)Nc3cnc4ccccc4n3)cc2)cc(OCC)c1OCC	-11.6	-2.6	-0.3	6.2%	-1.9	1.8
CC(=O)Nc1cccc(NC(=O)c2ccc([N+](=O)[O-])cc2Cl)c1	-5.4	5.5	-0.5	2.6%	-3.0	8.6
COC(=O)C(CCSC)NC(=O)C(NC(=O)C1CCC(C)CC1)C(C)C (stereo unspecified)	1.4	0.5	0.3	-0.8%	6.9	2.3
CC1(C)OC(C)(C)/C(=C\c2ccccc2[N+](=O)[O-])C1=O	-7.9	1.6	.	2.0%	.	0.0

Later entries:
SMILES	Six1-Eya2 blk	D2 agonist	TRPML1 agonist	PINK1 expr mod	TRPML1 inh	CtBP-E1A blk
Cc1ccc(CCNC(=O)c2ccc(Cn3c(=O)c4cccn4c4cccnc43)cc2)cc1	.	.	-1.0	-0.7%	10.9	.
COc1ccccc1N1CCN(CC(O)COc2ccc(S(=O)(=O)N3CCOCC3)cc2)CC1 (stereo unspecified)	0.7	?	1.0	1.2%[38.3 µM]	-0.6	2.2
C[C@@H](NC(=O)[C@@H]1Cc2ccccc2CN1C(=O)OC(C)(C)C)C(=O)NC1CCCC1	8.8	1.0	0.6	-1.1%	1.2	-17.1
CCn1c(C(=O)N2CCC(C(=O)NCc3ccc(OC)cc3)CC2)cc2sccc21	-2.2	-1.9	-1.0	0.8%	15.1	5.1
CCOc1ccc(Cn2c(CNS(=O)(=O)c3cccs3)nc3cccnc32)cc1	.	.	-0.1	-0.7%	21.6	.
